# Source: PubChem BioAssay (several laboratories)
# MT1-MMP promoter = MT1-MMP gene expression reporter suppression – cell-based, luciferase reporter, luminescence (AID 618); MT1-MMP promoter luciferase reporter cells, luminescence; actives 0.62% (n = 87,000); calls from a first round at 10 µM; hits with a dose series show EC50 in µM;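 active = over half of the reporter light lost at 10 µM or EC50 under 50 µM; inactive = the rest and hits that failed the dose series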;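 also: actives suppress MT1-MMP promoter-driven transcription so potencies describe inhibitors; HT1080 fibrosarcoma cells; overnight exposure; toxic or luciferase-blocking compounds were not removed from the actives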
# Hsc70 = small molecules displacing fluorescent ligand from Hsc70 – biochemical, fluorescence polarization, primary screen (AID 568); Hsc70 fluorescence polarization, probe displacement; higher % means a stronger effect; strong numbers were not always called active; displacement, % at 20 µM, or IC50 in µM where a hit was titrated; 83,000 tested, under 10 active;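 active = displacement above 50% without optical interference and an IC50 on retest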;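 also: ATPase domain with a fluorescein-tagged ATP probe; 0% = vehicle and 100% = excess ADP; read after one hour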
# WNV protease inh = WNV NS2B-NS3 proteinase inhibition; P06935; WNV NS2B-NS3 protease, fluorogenic substrate Ex360/Em465; hits give low values; z-score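 (tested at a level between 10 and 100 µM)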; actives 0.18% (n = 65,000);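 active = z-score at -3 or under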;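 also: score is relative to mean and spread of the compound wells of a plate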
# Target sequence (P06935 1371-1501 limits assumed): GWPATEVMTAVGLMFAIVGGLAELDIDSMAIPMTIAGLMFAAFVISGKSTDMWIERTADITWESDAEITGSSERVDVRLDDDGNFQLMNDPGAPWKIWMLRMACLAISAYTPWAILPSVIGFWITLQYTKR
# Target sequence (P06935 1502-1679 limits assumed): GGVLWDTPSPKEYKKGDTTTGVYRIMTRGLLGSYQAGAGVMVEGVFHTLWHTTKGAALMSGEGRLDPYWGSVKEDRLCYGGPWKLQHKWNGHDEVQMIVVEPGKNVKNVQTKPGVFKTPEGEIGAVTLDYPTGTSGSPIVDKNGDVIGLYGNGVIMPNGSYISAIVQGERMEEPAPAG
# * marks the source's active call; other numbers are inactive results; i = inactive; nt = no result given. This is a random part of the collection; any-hit rate near 0.8%.
# The line under a structure holds: WNV protease inh | MT1-MMP promoter | Hsc70
- Fc1ccc(CNc2nc(-c3ccco3)cc(C(F)(F)F)n2)cc1
    0.11 | i | -5.7%
- C=CCN=C(CC)C1=C(O)CCCC1=O
    -0.23 | i | 3.0%
- COCCn1c(=S)[nH]c2cc(C(=O)NCCCN3CCOCC3)ccc2c1=O
    -0.72 | i | 2.4%
- Cc1ccc(F)c(NC=C2C(=O)OC(C)(C)OC2=O)c1
    0.18 | i | 3.8%
- COc1cc(/C=C2/C(=O)N=C(N)N2C)cc(OC)c1OC
    nt | i | 2.6%
- CCc1ccccc1NC(=O)N[C@H](C(=O)O)C(C)CC (stereo not given in full)
    nt | i | -2.1%
- CCOC(=O)N1CCC(Nc2c(Nc3ccc(C)c(C)c3)c(=O)c2=O)CC1
    1.1 | i | -13%
- CCOC(=O)c1cc(-c2ccc(F)cc2)n(CC(=O)Nc2nccs2)c1C
    -1.3 | i | 4.3%
- COC(=O)c1ccccc1NC(=O)C1CCCN(S(=O)(=O)c2ccc(OC)cc2)C1 (stereo not given)
    -0.79 | i | 3.8%
- COc1cccc2c(=O)cc(C)n(CC(=O)Nc3ccc(C)c(C)c3)c12
    -0.18 | i | -7.9%

# Overlap with the part before: two compounds; new compounds follow.
# The line under a structure holds: WNV protease inh | MT1-MMP promoter | Hsc70
- COC(=O)c1ccccc1NC(=O)C1CCCN(S(=O)(=O)c2ccc(OC)cc2)C1 (stereo not given)
    -0.79 | i | 3.8%
- COc1cccc2c(=O)cc(C)n(CC(=O)Nc3ccc(C)c(C)c3)c12
    -0.18 | i | -7.9%
- COc1ccc2[nH]c(C)cc(=O)c2c1
    nt | i | -0.6%
- COc1ccc(CCNS(=O)(=O)c2cccc(C)c2)cc1OC
    nt | i | -0.9%
- COc1ccc(CCNC(=O)CSc2nc(O)c(CC(C)C)c(=O)[nH]2)cc1OC
    -0.16 | i | -6.6%
- CCn1cc2c(c1-c1cccc(C)c1)c(=O)n(C)c(=O)n2C
    -1.1 | i | -0.9%
- COc1ccc(-n2nnc3c(SCC(=O)OCc4ccccc4)ncnc32)cc1
    -0.05 | i | 2.1%
- Cc1cccc2cc(C#N)c(SCC(=O)NCC3CCCO3)nc12 (stereo not given)
    nt | i | -2.2%
- CCCCn1c(/N=C/c2cc(OC)ccc2O)nc2ccccc21
    -0.96 | i | 1.2%
- CCOC(=O)c1c(CN2CCCCC2)oc2ccc(O)cc12
    0.87 | i | -12%
- CCCC(=O)Nc1c(-c2ccc(OC)cc2)c(=O)c2ccccc2n1C
    nt | i | 1.6%
- CC(=O)Nc1ccc2c(c1)nc(CCNC(=O)c1ccccc1)n2C
    -0.58 | i | -0.7%
- COc1ccc(C(=O)CSc2nnc(-c3cc(C)cc(C)c3)o2)cc1
    -0.54 | i | 3.9%
- CCn1nc(C)c(NC(=O)CCSc2nc(-c3ccco3)cc(C(F)(F)F)n2)c1C
    nt | i | 1.7%
- NC(=O)NC(Cc1ccccc1)c1ccccc1 (stereo not given)
    0.36 | i | -9.2%
- COc1ccc(OC)c(NC(=O)c2nnn(Cc3ccccc3C)c2N)c1
    -0.0069 | i | -2.6%
- CCCc1c(C)c2ccc(OCC(C)=O)cc2oc1=O
    -0.67 | i | 9.9%
- COc1cccc(/C=N/n2c(C)nc3ccccc32)c1OC
    -0.54 | i | -3.6%
- CCOC(=O)NCc1ccc(CNC(=O)OCC)cc1
    0.13 | i | 2.5%
- Cc1ccc(-c2cccc(NC(=O)C3C(C(=O)O)[C@@H]4C=C[C@H]3C4)c2)o1 (stereo not given in full)
    0.51 | i | 0.3%
- Nc1nc2ccccc2n1CCOc1ccccc1Cl
    2.1 | i | -0.7%
- CC(NC(N)=O)C12CC3CC(CC(C3)C1)C2 (stereo not given)
    -0.9 | i | -3.3%
- CCSc1nnc(NC(=O)c2csc3c2CCCC3)s1
    -0.41 | i | 4.1%
- CC(=O)c1c(C)[nH]c(C(=O)Nc2ccc3c(c2)OCCO3)c1C
    -0.03 | i | -3.1%
- CC(C)C(c1nnnn1Cc1ccc2c(c1)OCO2)N1CCN(c2ccccc2)CC1 (stereo not given)
    -1.2 | i | 5.2%
- CNC(=O)C1CC(=O)N(Cc2ccc(OC)c(OC)c2)C(=Nc2ccc(OC)cc2)S1 (stereo not given)
    nt | i | -9.1%
- CCOc1cc(CN2CCSCC2)ccc1O
    0.54 | i | -9.3%
- Cc1nnc(SCC(=O)N2CCN(S(=O)(=O)c3ccccc3)CC2)[nH]c1=O
    0.35 | i | -4.9%
- Cc1ccc(-c2nc(CSCC(=O)NCCCN3CCOCC3)c(C)o2)cc1
    -0.23 | i | -8.7%
- C=CCOc1ccccc1/C=c1\sc2nc(=O)c(C)nn2c1=O
    -0.1 | i | 3.0%
- COC(=O)C1CCN(C(=O)Cc2ccc(OC)c(OC)c2)CC1
    -1.1 | i | -3.3%
- Cc1nc2ccccc2c2oc(C(=O)NCC3COc4ccccc4O3)cc12 (stereo not given)
    -0.53 | i | 6.1%

# Entries of single compounds, quoted from the list. Order of screens: WNV protease inh | MT1-MMP promoter | Hsc70
# COC(=O)C1CCN(C(=O)Cc2ccc(OC)c(OC)c2)CC1 in the list: -1.1 | i | -3.3%
# Cc1ccc(-c2nc(CSCC(=O)NCCCN3CCOCC3)c(C)o2)cc1 in the list: -0.23 | i | -8.7%
# Cc1nnc(SCC(=O)N2CCN(S(=O)(=O)c3ccccc3)CC2)[nH]c1=O in the list: 0.35 | i | -4.9%
# CCOc1cc(CN2CCSCC2)ccc1O in the list: 0.54 | i | -9.3%

# Other records follow:
# The line under a structure holds: WNV protease inh | MT1-MMP promoter | Hsc70
- COC(=O)c1c(=O)n(O)c2ccc(OC)cc2[n+]1[O-]
    1.5 | i | 69%
- CCn1c(CSc2nc3ccccc3[nH]2)n[nH]c1=S
    0.08 | i | -1.2%
- Cn1c(CSCc2ccc(Cl)c(Cl)c2)nnc1SCC(=O)Nc1nccs1
    1.1 | i | -2.4%
- O=C1CC(C(=O)N2CCOCC2)C2(CCCCC2)O1 (stereo not given)
    nt | i | -1.2%
- Clc1ccccc1-c1nnc(-c2ccccc2Cl)o1
    nt | i | 4.1%
- CCCCCc1nnc(NC(=O)CS(=O)(=O)Cc2ccccc2)s1
    1.4 | i | 0.4%
- O=C(NCc1ccco1)C(Cc1ccccc1)N1C(=O)c2ccccc2C1=O (stereo not given)
    0.85 | i | -1.1%
- c1ccc(-c2nnc3sc(CN4CCC5(CC4)OCCO5)cn23)cc1
    -2.7 | i | -5.0%
- COc1ccc(S(=O)(=O)N2CCCCC2)cc1Br
    0.3 | i | 1.7%
- O=C(OCn1nnc2ccccc2c1=O)c1cccs1
    -0.5 | i | -2.3%
- Cc1ccc(CSc2nnc(-c3ccc(S(=O)(=O)N4CCCC4)cc3)o2)cc1
    -0.33 | i | 3.0%
- O=C(NCCCN1CCCC1=O)c1ccccc1NS(=O)(=O)c1ccc(F)cc1
    0.26 | i | -4.5%
- CCn1c(SCc2ccccc2)nnc1-c1cccs1
    0.65 | i | 2.2%
- CN(C)/C=C(\C#N)c1nc2ccccc2[nH]1
    -0.58 | i | -3.2%
- CCOc1ccc(NS(=O)(=O)c2ccc3[nH]cc(C(=O)N(CC)CC)c(=O)c3c2)cc1
    -1.2 | i | 6.4%
- Cc1ccc(OCC(=O)N2CCN(c3nnc(-c4ccccc4)c4ccccc34)CC2)cc1
    nt | i | -7.1%
- COc1ccc(OC)c(-n2nnnc2SCC(=O)O)c1
    nt | i | 4.6%
- O=C(c1ccc(-c2nnc(Nc3ccccc3)c3ccccc23)cc1)N1C[C@H]2C[C@H](C1)c1cccc(=O)n1C2
    nt | i | -0.3%
- CCOC(=O)c1[nH]c2ccccc2c1NC(=O)c1ccc(Br)o1
    nt | i | 2.2%
- Cc1ccc(C)c(NC(=O)C(Sc2nncn2C)c2ccccc2)c1 (stereo not given)
    0.22 | i | -11%
- Cc1ccc(N)c(C(=O)CCCCC(=O)O)c1
    2.7 | i | -1.3%
- O=C(NCc1ccco1)c1csc(Nc2ccccc2Cl)n1
    -0.43 | i | -3.5%
- COc1ccc(C(=O)Cn2nnc(-c3ccccc3-n3cnnn3)n2)cc1
    0.27 | i | -3.8%
- O=S(=O)(c1ccccc1)c1nc(-c2cccs2)oc1NCC1CCCO1 (stereo not given)
    -0.17 | i | -3.2%
- CC(Sc1nnc2ccccn12)C(=O)Nc1ncc(Cl)cc1Cl (stereo not given)
    nt | i | 1.5%
- CC(=O)c1cccc(NC(=O)c2ccc(Br)o2)c1
    1.5 | i | -3.7%
- CCOC(=O)c1[nH]c(C)c(C(=O)N2CCN(c3ccc(F)cc3)CC2)c1C
    0.5 | i | -1.0%
- O=C(CCn1nc(-c2ccc(Cl)cc2)ccc1=O)NCc1ccccn1
    0.93 | i | 5.3%
- CN(C)c1ccc(NC(=O)CN2CCN(S(=O)(=O)c3cc(Cl)ccc3Cl)CC2)cc1
    0.22 | i | 2.6%
- CC(=O)c1cccc(NS(=O)(=O)N(C)C)c1
    -0.1 | i | -1.5%
- Cc1nnc(SCC(=O)N2c3ccccc3Sc3ccccc32)n1N
    0.07 | i | -10%
- N#CC(c1ccc(O)cc1)N1CCCCC1 (stereo not given)
    nt | i | 2.2%
- O=C(NC1CCCCC1)Sc1ccc(Cl)cc1
    0.89 | i | -1.4%
- Cc1ccc(C2C=C(c3ccccc3OC(F)F)Nc3ncnn32)cc1 (stereo not given)
    -0.95 | i | 5.6%
- Cc1cc(Nc2ccccc2)n(CCC#N)n1
    -0.26 | i | 1.9%
- COc1cc(C(=O)N(Cc2cccnc2)Cc2cc3cc4c(cc3[nH]c2=O)OCCO4)cc(OC)c1OC
    nt | i | 5.1%
- Cn1c(SCC(=O)NCc2ccc3c(c2)OCO3)nnc1-c1c[nH]c2ccccc12
    -0.47 | i | 2.5%
- O=C(NCc1cccnc1)c1cn(CCc2ccccc2)nn1
    -0.7 | i | 0.2%
- CCn1c(=O)c2ccccc2n2c(SCC(=O)N3CCCc4ccccc43)nnc12
    2.1 | i | 0.3%
- Cc1cc(S(=O)(=O)NCCc2ccccc2)c(C)s1
    -0.52 | i | 1.1%
- Cc1cc(=O)oc2c(CN(CC(C)C)CC(C)C)c(O)ccc12
    nt | i | 2.5%
- NC(=O)COC(=O)C(Cc1ccccc1)NS(=O)(=O)c1ccccc1F (stereo not given)
    -2.4 | i | 4.4%
- Cn1c(SCCSc2nnc(-c3ccccc3)n2C)nnc1-c1ccccc1
    -0.47 | i | -1.3%
- CCOC(=O)c1[nH]c(C)c(C(=O)N2CCN(c3ccccc3)CC2)c1C
    -0.71 | i | -9.2%
- CCOC(=O)C(CC)Sc1nc2c(c(=O)[nH]c(=O)n2C)n1C/C=C(/C)Cl (stereo not given)
    -0.72 | i | 4.1%
- Cc1c(-c2ccccc2)nc2ccccc2c1C(=O)O
    -0.44 | i | 4.9%
- O=C(CN1C(=O)COc2ccc(Cl)cc21)N1CCc2ccccc21
    -0.12 | i | 1.7%
- Clc1ccc(SCCn2ccnc2)cc1
    0.38 | i | 2.7%
- Cc1cc(C)c(C#N)c(SCc2ccccc2C(=O)O)n1
    0.39 | i | -3.0%
- Cc1ccccc1Nc1nc(N)nc(CSc2nc3ccccc3c(=O)n2C)n1
    nt | i | -0.2%

# Remaining list, next part:
# The line under a structure holds: WNV protease inh | MT1-MMP promoter | Hsc70
- Cc1cccc2cc(C#N)c(NCCCn3ccnc3)nc12
    1.1 | i | -3.9%
- COc1ccc(S(=O)(=O)O/N=C2\CCCc3ccccc32)cc1
    nt | i | 1.3%
- O=C(CSc1ncccc1C(=O)O)c1ccc2ccccc2c1
    nt | i | 0.7%
- CCC(=O)NCCNc1nc2cc(C)c(C)cc2cc1C#N
    nt | i | -0.8%
- CCOCCCNc1ncnc2c1[nH]c1ccccc12
    0.27 | i | -2.3%
- CCOC(=O)c1ccc(NC(=O)CC2OCCN(CC)C2=O)cc1 (stereo not given)
    3.5 | i | -7.7%
- CSc1nc(SCC(N)=O)c2c3c(sc2n1)CN(C)CC3
    -1.4 | i | -2.3%
- O=C(c1ccc(Cl)cc1)c1ccc(CN2C(=O)c3ccccc3C2=O)o1
    nt | i | 5.7%
- CC1CN(C(=O)Nc2ccc3snnc3c2)c2ccccc21 (stereo not given)
    -0.79 | i | 4.4%
- O=C(Nc1ccccc1)OC1C2CCC1C(N1CCCCC1)CC2 (stereo not given)
    1.3 | i | -3.7%
- CC(C)CCn1c(CN2CCN(c3cccc(Cl)c3)CC2)nc2c1c(=O)n(C)c(=O)n2C
    0.99 | i | 8.0%
- COc1cc(C)c(Cl)cc1S(=O)(=O)NCc1ccco1
    0.02 | i | -0.1%
- CCn1c(NCc2cccc(OC)c2OC)nc2ccccc21
    1.1 | i | 8.0%
- O=C(CCc1nc2ccccc2[nH]c1=O)OCc1ccc(S(=O)(=O)N2CCOCC2)cc1
    0.54 | i | 3.3%
- CCOC(=O)c1ccc(NC(=O)C2CCCN(S(=O)(=O)c3ccc(F)cc3)C2)cc1 (stereo not given)
    nt | i | 2.2%
- CCC(C)(C)NC(=O)C(c1ccc(C)o1)N(Cc1cccs1)C(=O)Cn1nnc2ccccc21 (stereo not given)
    -0.47 | i | -0.7%
- C=CCNc1nc(N)c(C(=O)c2ccc3c(c2)OCO3)s1
    0.46 | i | -0.3%
- CCc1nc(C)cn1S(=O)(=O)c1cc(OC)c(C)cc1C
    -0.95 | i | -2.6%
- CCCNC(=O)NC(=O)COC(=O)c1ccc(OC)c(S(=O)(=O)N2CCCc3ccccc32)c1
    0.26 | i | -7.1%
- COc1ccccc1CNS(=O)(=O)c1ccc2c(c1)oc(=O)n2C
    -1.3 | i | 0.1%
- COc1cccc(NC(=O)CN2CCN(S(=O)(=O)c3ccc(F)cc3)CC2)c1
    nt | i | 3.5%
